# Lassa entry inh: blocks Lassa virus binding to or entry into cells; Lassa virus pseudotype entry inhibition, cell reporter; control for the full effect not named in the record; Potency, µM (highest dose often 37.9 µM), without a hit: at the top dose activity change, negative = inhibition, most hits filed as inhibitors; 300,000 tested, 1.2% active; AID 540256; active means well fitted inhibition curve with a large enough effect; inconclusive means small, poorly fitted or top-dose-only effect, or effect the other way; inactive means flat fitted curve, though single readings scatter; tested in HEK293 cells; note: % is set by controls: 0 for no effect and ±100 for the full control effect; nearly all actives have a fitted effect of over 50% in size; luciferase read-out
# Cruzain noTriton: blocks cruzain activity in detergent-free assay; P25779; purified cruzain, Z-FR-AMC fluorescence, no detergent; Potency, µM, for inactives: max response, negative = inhibition, usual class: inhibitors; 200,000 tested, 2.3% active; AID 1476;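 note: plate controls were enzyme without inhibitor for no effect and buffer without enzyme for full effect; nearly all actives have a fitted effect of over 40% in size; top concentration of the series not given in the record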
# Target sequence (P25779 123-467 limits assumed): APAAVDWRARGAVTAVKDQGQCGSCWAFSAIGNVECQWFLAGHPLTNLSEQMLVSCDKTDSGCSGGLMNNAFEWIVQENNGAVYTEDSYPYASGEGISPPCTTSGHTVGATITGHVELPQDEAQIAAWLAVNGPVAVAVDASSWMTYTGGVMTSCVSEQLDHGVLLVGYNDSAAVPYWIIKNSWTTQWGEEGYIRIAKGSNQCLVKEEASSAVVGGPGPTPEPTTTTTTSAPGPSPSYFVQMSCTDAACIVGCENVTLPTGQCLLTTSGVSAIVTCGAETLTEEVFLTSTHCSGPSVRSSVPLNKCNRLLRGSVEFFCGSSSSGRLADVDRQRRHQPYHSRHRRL
#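 Detergent-free condition (0.00005% Triton X-100) in acetate buffer pH 5.5 with DTT. 1.5 nM enzyme and compound were pre-mixed 15 min, then 2 uM Z-FR-AMC substrate added; reaction progress from fluorescence change between first and third reads (60 s).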
# 2A StopGo: FMDV 2A StopGo reporter, luciferase signal | human cells with a luciferase reporter of 2A StopGo recoding; control for the full effect not named in the record | Potency, µM (top dose mostly 57.9 µM), inactives show at the highest dose signal change, negative = less light | 410,000 tested, 1.2% active; active = well fitted falling curve with a large enough effect; inconclusive = small, poorly fitted or top-dose-only effect; inactive = no such curve, though single readings can be large or run the other way; tested in HEK293T cells; note: % is set by controls: 0 for no effect and ±100 for the full control effect; nearly all actives have a fitted effect of over 45% in size; luciferase light after 4 h
# RE007 growth inh: less growth of the S. pombe RE007 Vpr strain; Potency, µM (top dose mostly 92.2 µM), for inactives: at the top dose activity change, negative = less growth; 360,000 tested, 0.21% active; AID 651644; S. pombe RE007 Vpr strain, BacTiter-Glo ATP luminescence, 24 h; control for the full effect not named in the record; active = well fitted falling curve with a large enough effect; inconclusive = small, poorly fitted or top-dose-only effect; inactive = no such curve, though single readings can be large or run the other way;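 note: % is set by controls: 0 for no effect and ±100 for the full control effect; nearly all actives have a fitted effect of over 50% in size; the assay follows cell death caused by Vpr and the record does not say whether a fall means rescue or toxicity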
#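 Fission yeast strain RE007, carrying one chromosomally integrated HIV-1 vpr copy, was seeded at OD 0.01 in PMG+AL medium with 23 nL pinned compound. After 24 h at 30 °C and 99% humidity, viability was read by BacTiter-Glo luminescence.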
# MARV entry inh: Marburg virus entry inhibition | Marburg virus pseudotyped entry inhibition, cell reporter; control for the full effect not named in the record; about a third of the inactives were read at about 46 µM | Potency, µM (titrated, usually from 37.8 µM), inactives show top-dose activity change, negative = inhibition, actives largely listed as inhibitors | 300,000 tested, 1.8% active | AID 540276; active = well fitted inhibition curve with a large enough effect; inconclusive = small, poorly fitted or top-dose-only effect, or effect the other way; inactive = flat fitted curve, though single readings scatter; tested in HEK293 cells; about a fifth of its hits are not listed in these tables; note: % is set by controls: 0 for no effect and ±100 for the full control effect; luciferase read-out
# SARS PLpro yeast: inhibitors of SARS-CoV papain-like protease in yeast | AID 485353 | 330,000 tested, 0.19% active | S. cerevisiae expressing SARS-CoV PLpro, growth rescue; control for the full effect not named in the record | Potency, µM (series often up to 32.9 µM), inactives show top-dose activity, positive = growth rescue; active means well fitted rising curve with a large enough effect; inconclusive means small, poorly fitted or top-dose-only effect; inactive means no such curve, though single readings can be large or run the other way; note: 0% is about no effect; nearly all actives have a fitted effect of over 55% in size; growth read by luminescence after 48 h
# NS1 inh: blocks influenza NS1 protein function; S. cerevisiae slowed by influenza A NS1, growth recovery by OD600; Potency, µM (highest dose often 46.1 µM), without a hit: at the highest dose activity, positive = more growth; 270,000 tested, 0.4% active; AID 2326; active means well fitted rising curve with a large enough effect; inconclusive means small, poorly fitted or top-dose-only effect; inactive means no such curve, though single readings can be large or run the other way; note: nearly all actives have a fitted effect of over 50% in size
#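 In this qHTS, NS1 from influenza A is expressed in budding yeast, where it slows growth. Cells are switched from glucose to 2% galactose medium (pH 6.0, -URA), treated with compound, and growth recovery is read at OD600.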
# Cruzain inh Det: inhibitors of Trypanosoma cruzi cruzain with detergent | Potency, µM, without a hit: max response, negative = inhibition, most hits filed as inhibitors | P25779 | 200,000 tested, 0.43% active | purified cruzain, Z-FR-AMC fluorescence, 0.01% Triton;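 note: plate controls were neutral wells for no effect and buffer without enzyme for full effect; nearly all actives have a fitted effect of over 40% in size; top concentration of the series not given in the record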
#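 Read-out: AMC fluorescence (360 nm excitation, 450 nm emission), four reads over 2 min, first-to-third difference used. Conditions: cruzain 1.5 nM, Z-FR-AMC 2 uM, pH 5.5 acetate, 5 mM DTT, 0.01% Triton X-100.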
# * hit, by the source's call; ? = inconclusive; · = no result given; & = joins results of further samples; [ ] = dose if it differs, or a comment. Unless noted, calls come from the whole dose curve; as a rule, active = well fitted curve in the direction sought with a large enough effect; inconclusive = small, poorly fitted or top-dose-only effect, or another doubt; inactive = no such curve, though single readings can be large; an effect the other way counts as inactive or inconclusive. Potency is the fitted concentration of half-maximal effect. An unsorted share of the library; 4.7% or so of the library scored in one or more.
SMILES,Lassa entry inh,Cruzain noTriton,2A StopGo,RE007 growth inh,MARV entry inh,SARS PLpro yeast,NS1 inh,Cruzain inh Det
O=C(CCC1CCCC1)Nc1ccon1,0.0%,-10.4%,13.6%,-9.1%,1.1%,-6.8%,2.4%,-0.3%
Cc1ccc(C(=O)Nc2ccc(NC(=O)c3ccco3)c(C)c2)cc1,?,·,8.2%,29.5%,?,1.7%,-3.3%,·
CCn1cc(CN2CCC(n3nccc3NC(=O)CCCc3ccccc3)CC2)cn1,·,·,-12.2%,13.2%,·,7.7%,-6.1%,·
CCCOc1ccc(OCC(=O)c2[nH]c(C)c(C(C)=O)c2C)cc1,?,-12.7%,?,7.5%,-23.2%,-9.3%,-0.9%,0.3%
Cc1ccc(NC(=O)CCCn2nc(C)c3c(C)n(-c4ccccc4)nc3c2=O)cc1Cl,29.4%[46.1 µM],-5.8%,-16.3%,·,·,·,·,0.7%
O=C(N/N=C/c1ccccc1)c1cc[n+]([O-])cc1,1.6%,·,-0.5%,-3.6%,13.2%[46.1 µM],6.8%,4.1%,·
FC(F)(F)c1cnc(-c2cnc3c(-c4ccc(Cl)cc4)cnn3c2)c(Cl)c1,1.7%,10µM*,-18.6%,-16.7%,17.4%,-1.4%,-2.4%,4.7%
Cn1c(CCN2CCCCC2)nc2cc([N+](=O)[O-])ccc21,3.1%,-1.6%,·,0.0%,1.9%,-1.2%,16.1%,-5.7%
CCN(CC)S(=O)(=O)c1ccc(C2=NOC3(C2)N(C)c2ccccc2C3(C)C)cc1 (stereo not given),0.731µM*,-3.1%,-26.8%,2.7%,1.84µM*,-3.2%,1.9%,-0.7%
CCC1CCCCN1C(=O)CSc1nc(N)cc(=O)[nH]1 (stereo not given),·,·,-8.7%,3.0%,?,-0.5%,19.9%,·
Cc1ccc(Cn2c(SCc3ccc(C(=O)NC4CCCCC4)cc3)nc3ccncc32)cc1,·,-5.5%,?,·,-26.3%[46.1 µM],·,·,-7.9%
CCCCNCC(O)(c1ccc(Cl)cc1)c1ccc(Cl)cc1,?,·,-9.2%,-15.5%,?,-0.4%,·,·
Cc1cc(C)nc(/N=C(\N)Nc2ccc(OCc3ccccc3)cc2)n1,?,·,28.2µM*,5.3%,?,0.4%,5.1%,·
CC(=O)C1=C(C)NC(SCC(N)=O)=C(C#N)C1c1ccco1 (stereo not given),-1.9%[46.1 µM],·,-11.4%,1.0%,?,-1.3%,·,·
O=S1(=O)c2ccccc2OC(COCc2ccccc2)CN1C1CC1 (stereo not given),?,·,-23.1%,-4.9%,1.9%,13.2%,·,·
OCCCc1nc2ccccc2n1CCCCOc1ccccc1,-1.0%[46.1 µM],-1.4%,-18.6%&-10.6%,-13.2%,·,0.7%,-8.2%,-5.0%
Cc1ccc(S(=O)(=O)c2nc(-c3cccs3)oc2SCC(N)=O)cc1,6.1%,-24.1%,14.6%,7.4%,-1.3%,-0.8%,-1.8%,-1.2%
Cc1cccc(Nc2nc(N)nc(CN3CCN(c4ccccc4F)CC3)n2)c1,-48.9%,·,?,-2.2%,-27.4%,·,-12.2%,·
COc1ccc(N2CCN(CCCNC(=O)CCC(=O)N3CCOc4ccc(Cl)cc43)CC2)cc1,-23.6%[46.1 µM],·,-26.0%,5.1%,?,-2.6%,6.9%,·
CCN1CCN(C(=O)c2ccc3c(=O)n(CCC4=CCCCC4)c(=O)[nH]c3c2)CC1,-9.6%,10.2%,-25.6%,7.2%,-3.7%,-1.8%,-6.7%,-0.2%
COCCn1c(C)cc(C2=NNC(=NC3CC3)SC2)c1C,0.316µM*,·,1.26µM*,?,0.316µM*,-6.1%,·,·
Cc1ccc(C)c(NC(=O)CSc2nnc([C@@H]3CCCN3C(=O)OC(C)(C)C)o2)c1,-13.8%,?,-19.0%,12.7%,5.8%[46.1 µM],3.6%,1.8%,5.4%
CC(=O)OC(C(=O)NCc1ccco1)c1ccncc1 (stereo not given),0.6%,5.5%,-20.2%,-11.2%,-5.3%,-3.9%,1.6%,0.5%
O=C1NCCN/C1=C\C(=O)c1ccc(F)cc1,·,·,0.0%,3.6%,·,-0.9%,-0.3%,·
CC(C)NC(=O)CCCc1cn(C)c2ccccc12,19.2%,5.6%,1.3%,6.7%,-8.9%,1.1%,-18.5%,1.7%
CCn1cc(C(=O)NCC2CCCO2)c(=O)c2cc(F)c(N3CCN(C)CC3)cc21 (stereo not given),9.2%,2.9%,-17.7%,-15.7%,-20.7%&-20.7%,-0.2%,20.0%,-5.1%
N#C/C(=C\c1c(N(Cc2ccccc2)Cc2ccccc2)nc2ccccn2c1=O)C(N)=O,?,?,?,3.5%,3.1%,27.7%,1.9%,-11.8%
CN1CCN(CC(=O)Nc2nc3ccccc3s2)CC1,·,·,32.2%[activator],-6.5%,·,-2.5%,18.5%,·
Cc1ccc(-c2noc(-c3ccno3)n2)cc1,?,·,58.3%[activator],5.7%,25.7%[46.1 µM],0.0%,4.0%,·
O=C(O)c1cccc(NC(=O)c2cccc(S(=O)(=O)N3CCc4ccccc4C3)c2)c1,·,·,16.6%,-12.9%,·,0.9%,14.9%,·
Cc1csc2nc(CSc3nc4ccccc4o3)c(Br)n12,?,-6.3%,14.4%,-25.5%,?,-7.4%,-19.9%,-5.6%
Cc1c(NC(=O)c2cccs2)cccc1NC(=O)c1cccs1,-12.8%,·,-8.8%,2.2%,-27.2%,·,15.7%,·
COCCN(C(=O)COC(=O)CCc1c[nH]c2ccccc12)c1c(N)n(Cc2ccccc2)c(=O)[nH]c1=O,-16.1%,·,-23.9%,-1.0%,20.5%,1.1%,·,·
CCCCC(=O)N1CCCC(C(=O)OCC)C1 (stereo not given),3.8%,3.3%,-24.5%,-19.4%,-6.3%,-0.2%,-4.8%,0.8%
COc1ccccc1CNC(=O)c1cnc2sccn2c1=O,·,-6.2%,-5.3%,-1.2%,·,0.7%,-36.1%,-2.7%
COc1cccc(N2CCN(c3nc(C)cc(=O)[nH]3)CC2)c1,·,·,0.6%,4.8%,·,1.3%,20.7%,·
N#Cc1nc(-c2ccccc2)oc1N1CCC(C(N)=O)CC1,-7.8%[46.1 µM],·,-7.9%,11.1%,-3.9%[46.1 µM],-0.1%,1.7%,·
COc1cc(C(=O)OCC(=O)NC2CCS(=O)(=O)C2)c([N+](=O)[O-])cc1OC (stereo not given),-7.7%,·,-4.0%,-16.1%,6.3%[46.1 µM],0.1%,·,·
CCN(CC)c1ccc2c(C)c(CN3CCOCC3)c(=O)oc2c1,10.3%,-6.4%,3.5%,-16.3%,11.6%,3.0%,-5.3%,3.1%
CC(C)CC(=O)Nc1nnc2n1CCS2,8.9%[46.1 µM],8.0%,-6.0%,·,·,·,·,0.1%
CC/C(=N\NC(=O)C1CCCC1)c1ccc(Br)cc1,-3.3%[46.1 µM],·,-12.1%,-7.7%,-13.8%[46.1 µM],14.5%,?,·
CC1CCCC(C)N1C(=O)Cn1c(SCC(=O)NCc2ccc3c(c2)OCO3)nc2ccccc21 (stereo not given),-2.0%,-7.2%,-13.4%,6.1%,-4.0%,5.9%,-14.7%,-5.0%
CCc1ccc(NC(=O)C(=O)NCCc2sc3nc(-c4ccc(OC)cc4)nn3c2C)cc1,-17.1%[46.1 µM],3.4%,-8.8%,·,·,·,·,-0.4%
C/C(=N\OCC(=O)OC(C)C(=O)Nc1ccc(C(N)=O)cc1)c1ccc2c(c1)OCO2 (stereo not given),15.0%,·,-6.2%,2.8%,?,1.4%,-4.3%,·
NC(=O)c1ccccc1OCc1nnc(-c2ccccc2Br)o1,24.3%[46.1 µM],·,23.6%,-4.4%,10.4%[46.1 µM],-6.0%,10.3%,·
O=C1CC(c2ccc(F)cc2)CC(O)=C1C=NCCN1CCNCC1 (stereo not given),-1.0%,·,1.4%,2.6%,-2.9%[46.1 µM],·,·,·
CCN(CC(=O)Nc1ccc(OC)cc1)C(=O)CCS(=O)(=O)c1ccc(C)cc1,7.3%,·,-16.8%,-16.5%,12.5%,-2.6%,-2.3%,·
Nc1ncnc(Sc2ccccc2)c1[N+](=O)[O-],5.3%,4.0%,-6.3%,-24.8%,1.4%,27.2%,-30.1%,-0.2%
CCOC(=O)c1nnn(-c2nc(N3CCCC3)nc(N3CCCC3)n2)c1-c1ccccc1,?,6.2%,15.3%,7.2%,-2.1%&-2.1%,3.8%,1.5%,-10.9%
CCCc1cc(=O)n2[nH]c(NCc3ccccc3F)nc2n1,1.8%,0.7%,5.9%,15.5%,6.5%,4.9%,1.1%,-6.5%
Cc1ccc(S(=O)(=O)Cc2nc3ccccc3c(=O)[nH]2)cc1,10.4%,-1.4%,-22.1%,3.9%,?,-2.2%,0.5%,5.6%
Cc1ccc(/C=C/C(=O)c2ccccc(=O)c2O)cc1C,?,-23.9%,?,?,15.8µM*,?,-62.7%,-10.4%
CN1/C(=C/C(=O)c2ccc(Cl)cc2)Sc2cc3c(cc21)OCO3,16.0%,2.2%,35.6%[activator],4.8%,?,22.5%,16.9%,-4.5%
COc1ccc(N2CC(C(=O)Nc3cc(C)ccn3)CC2=O)cc1 (stereo not given),·,·,-4.3%,19.3%,·,-2.4%,1.5%,·
Cc1nc2ccc(Br)cc2c2c1CC(CO)O2 (stereo not given),·,·,-26.6%,-9.8%,·,0.3%,0.3%,·
Cc1cc(C)n(C2CC(=O)N(c3ccc(Cl)c(Cl)c3)C2=O)n1 (stereo not given),11.1%[46.1 µM],·,-4.6%,-0.6%,-2.7%[46.1 µM],-2.0%,-0.3%,·
CCOC(=O)c1c(C)nc2sc3c(=O)n(-c4ccc(OC)cc4)cnc3c2c1-c1ccc(OC)cc1,-9.4%,10.2%,-1.1%,-1.6%,2.4%,-1.5%,0.8%,2.9%
CCCN1C(=O)c2ccc(C(=O)NCc3ccco3)cc2C1=O,-3.5%,2.5%,1.5%,-8.7%,-4.7%,-3.4%,-9.3%,0.7%
CCOC(=O)c1cc(=O)n2nc(-c3ccccc3F)nc2s1,26.9%,5.9%,-15.9%,-8.3%,?,-12.9%,0.6%,8.2%

# Assay outcomes deposited in PubChem by National Center for Advancing Translational Sciences (NCATS).
